High-throughput results: PubChem BioAssay, National Center for Advancing Translational Sciences (NCATS)
gsp ag – qHTS for Agonist of gsp, the Etiologic Mutation Responsible for Fibrous Dysplasia/McCune-Albright Syndrome: qHTS | gsp mutant cells, cAMP HTRF, 30 min; control for the full effect not named in the record | Potency, µM (series often up to 76.9 µM), for inactives: at the top dose activation (cAMP increase), usual class: activators | actives 0.13% (n = 340,000) | AID 624287, 2012; active = well fitted activation curve with a large enough effect; inconclusive = small, poorly fitted or top-dose-only effect, or another doubt; inactive = no such curve, though single readings can be large or run the other way; cell line not stated here;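 also: phosphodiesterase inhibitor Ro 20-1724 added with compounds to block cAMP breakdown; potency is read from the fitted curve at half-maximal effect; nearly all actives have a fitted effect of over 60% in size; about a fifth of the inactives were tested at one dose only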
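Cells stably selected in G418 were plated at 2000/well, grown 16-24 hr, then given compounds in DMSO with the PDE inhibitor […] (300 uM solution added) for 30 min at 37C; cAMP was read by HTRF.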
Menin-MLL FL inh – qHTS Assay for Inhibitors Targeting the Menin-MLL Interaction in MLL Related Leukemias: Competition With Fluorescein Labeled MLL-derived Peptide; 290,000 tested, under 10 active; Fluorescence polarization, fluorescein-MLL peptide displacement from menin; FP activity change, % at 61.4 µM; AID 1766, 2009; inconclusive = falling polarisation curve, or a change in total fluorescence; inactive = total fluorescence flat and polarisation flat or rising; no compound was filed as active; the % refers to the polarisation; negative = inhibition;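 also: % of control where 0% means no effect; inhibitors lower the polarisation; unlabelled MLL peptide was the positive control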
ClpP mod – qHTS Assay for Activators of ClpP; Potency, µM (series often up to 57.5 µM), for the others: at the top dose activity change, negative = active; ATP-dependent Clp protease proteolytic subunit (Bacillus subtilis (strain 168)), P80244; actives 1.9% (n = 340,000); purified B. subtilis ClpP, FRET peptide cleavage, 20 min; AID 651965, 2013; active = well fitted falling curve with a large enough effect; inconclusive = small, poorly fitted or top-dose-only effect; inactive = no such curve, though single readings can be large or run the other way; also: potency is read from the fitted curve at half-maximal effect; the source files actives as falling curves though it sought activators and does not explain the sign; nearly all actives have a fitted effect of over 65% in size; many hits overshoot -100%
Target sequence (P80244 whole entry, looked up): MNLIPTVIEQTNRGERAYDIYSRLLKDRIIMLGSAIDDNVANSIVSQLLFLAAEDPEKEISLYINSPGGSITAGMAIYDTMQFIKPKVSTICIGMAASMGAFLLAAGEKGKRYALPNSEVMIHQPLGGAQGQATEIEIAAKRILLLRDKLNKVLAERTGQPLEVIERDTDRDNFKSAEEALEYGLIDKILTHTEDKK
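ClpP 10 microg/mL final, pH 8 Tris/KCl buffer with BSA, glycerol, Tween-20; compound pinned in; FRET-FV substrate; RT 20 min; Ex320/Em430; ΔFRET vs ADEP 5.8 microM, DMSO, no enzyme.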
TRPML1 blocker – qHTS for Inhibitors of the Human Mucolipin Transient Receptor Potential 1 (TRPML1). AID 624415, 2012. Mucolipin-1 (Homo sapiens), Q9GZU1. activity change, negative = inhibition, % (concentration not given with the values). TRPML1-inducible cells, Ca2+ dye fluorescence, FDSS; hits give low values; inhibition of EC80 agonist-evoked calcium signal. actives 0.02% (n = 390,000); in the data active means activity change below about -50%; inconclusive means about -30% to -50%; inactive means above about -30%;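 also: stimulus is agonist 54-4 at its EC80 concentration; % is scaled to controls: 0 for no effect and ±100 for the full control effect; compound concentration not given in the record; the text of the record puts the active cut at -80%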
Target sequence (Q9GZU1 whole entry, looked up): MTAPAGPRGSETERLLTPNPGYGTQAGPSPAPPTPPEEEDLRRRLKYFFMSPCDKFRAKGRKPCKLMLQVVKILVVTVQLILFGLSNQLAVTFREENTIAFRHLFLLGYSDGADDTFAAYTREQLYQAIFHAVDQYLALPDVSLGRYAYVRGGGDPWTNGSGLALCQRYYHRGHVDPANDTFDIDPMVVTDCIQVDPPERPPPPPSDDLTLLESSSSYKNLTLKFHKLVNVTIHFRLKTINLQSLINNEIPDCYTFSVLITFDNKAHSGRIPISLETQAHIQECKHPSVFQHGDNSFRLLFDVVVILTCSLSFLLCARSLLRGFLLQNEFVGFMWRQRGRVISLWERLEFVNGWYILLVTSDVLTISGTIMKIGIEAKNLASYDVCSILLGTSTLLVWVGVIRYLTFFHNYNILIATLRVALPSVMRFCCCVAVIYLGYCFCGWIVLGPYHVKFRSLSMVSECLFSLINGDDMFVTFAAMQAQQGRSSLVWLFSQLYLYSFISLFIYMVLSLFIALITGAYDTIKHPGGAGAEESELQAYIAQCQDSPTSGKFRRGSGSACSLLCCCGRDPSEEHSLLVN
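Calcium fluorescence in TRPML1-DL cells induced overnight with Tet: a 110 s read after compound pin addition, then a 110 s antagonist read after challenge with 54-4 at 4 uM final (EC80).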
TRPML1 ag – qHTS for Agonists of the Human Mucolipin Transient Receptor Potential 1 (TRPML1); Mucolipin-1 (Homo sapiens), Q9GZU1; TRPML1-expressing cells, Ca2+ dye fluorescence, FDSS; host cell line not named in the record; reference of the full effect not given here; activation, % (concentration not given with the values); actives 0.12% (n = 410,000); AID 624414, 2012; in the data active = activation above about 50%; inconclusive = about 30% to 50%; inactive = below about 30%; also: 0% is about no effect; the text of the record puts the active cut at 80%
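Cells: TRPML1-DL, 1X Tet inducer, ~16 h at 37 degrees C/5% CO2. Dye: ABD Ca8 no-wash + quencher, 45-90 min RT. Read: 10 s baseline, compound add, 110 s agonist phase; 54-4 EC80 (4uM final), 110 s antagonist phase.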
gsp antag – qHTS for Antagonists of gsp, the Etiologic Mutation Responsible for Fibrous Dysplasia/McCune-Albright Syndrome: qHTS; gsp-mutant cells, cAMP HTRF, 30 min; control for the full effect not named in the record; Potency, µM (titrated, usually from 76.9 µM), for the others: top-dose activity change, negative = inhibition, actives largely listed as inhibitors; AID 624288, 2012; actives 0.4% (n = 340,000); active = falling curve of any shape with a large fitted effect; inconclusive = falling curve, mostly with a smaller effect; inactive = flat or rising curve; cell line not stated here;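 also: intracellular cAMP measured with PDE inhibitor Ro 20-1724 present during compound exposure; potency is read from the fitted curve at half-maximal effect; % is scaled to controls: 0 for no effect and ±100 for the full control effect; nearly all actives have a fitted effect of over 65% in size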
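HTRF cAMP measurement after 30 min RT detection following 30 min, 37C compound treatment alongside […] (added as 300 uM solution) in G418-selected cells seeded at 2000/well and grown 16–24 h.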
Starred values were filed as active, the others as inactive; ? = inconclusive; / = no result given; & = joins results of further samples; [ ] = dose if it differs, or a comment.

SMILES | gsp ag | Menin-MLL FL inh | ClpP mod | TRPML1 blocker | TRPML1 ag | gsp antag
CC(C)c1ccc(NC(=O)C(Cc2ccccc2)NS(=O)(=O)c2ccc3c(c2)CCC(=O)N3)cc1 (stereo not drawn) | / | / | -1.7% | -7.7 | 0.6 | /
COc1ccccc1Cc1nc2ccccc2nc1SCC(=O)N1CCC(C)CC1 | / | / | -4.0% | 59.0 | 1.5 | /
O=C(CSc1nc(C2CC2)nc2ccccc12)N1c2ccccc2Sc2ccccc21 | 0.8% | 4.0 | 12.6µM* | -8.4 | 0.1 | 5.1%
CCOc1ccc(C2CC(=O)NC3=C2C(=O)CCC3)cc1 (stereo not drawn) | -29.6% | 1.7 | -3.3% | 8.7 | 1.6 | 5.3%
Cc1coc2c(C)c3oc(=O)c(CCC(=O)NCCCN4CCCC4=O)c(C)c3cc12 | / | 1.5 | -12.5% | / | / | -12.4%
COc1cccc(CNC(=O)C(c2ccc(Cl)cc2)C(C)C)c1 (stereo not drawn) | 2.2% | -0.4 | 0.9% | -0.8 | -1.4 | -4.3%
O=C(Cn1c(=O)oc2cc(S(=O)(=O)N3CCCC3)ccc21)NCc1ccccn1 | -20.9% | 2.6 | -0.4% | 5.7 | -0.4 | 1.6%
NC(=O)c1ccccc1OCC(=O)N1CCCC1c1ccc2c(c1)OCCCO2 (stereo not drawn) | -5.2% | / | -2.9% | 32.4 | 1.0 | 1.9%
CN(C)Cc1c[nH]c2nc[nH]c(=O)c12 | -83.8%[inhibitor] | / | / | 0.2 | 0.1 | 1.2%
O=C(O)/C=C/c1cn(-c2ncc(C(F)(F)F)cc2Cl)c2ccccc12 | 0.2% | 0.5 | -0.4% | -4.6 | 0.1 | ?
COc1ccc(C2=Nn3c(nnc3-c3ccc(OC)cc3)SC2)cc1 | -41.1%[inhibitor] | 8.1&-5.6 | -0.7% | 26.9 | 2.4 | 17.3%
CCOC(=O)Nc1ccc(S(=O)(=O)Nc2onc(C)c2C)cc1 | 53.2%[15.4 µM] | / | / | 8.4 | 0.4 | 21.1%
CCN1/C(=C\C=C(C(C)=O)C(C)=O)Sc2ccccc21 | -11.1% | ? | / | -1.8 | 20.6 | -25.5%
CCC1CCCCN1S(=O)(=O)c1ccc([N+](=O)[O-])cc1 (stereo not drawn) | -1.6% | 4.7 | -3.4% | -22.8 | -0.2 | -1.8%
CC(C)COc1ccc(C(=O)N(Cc2ccco2)C2CCS(=O)(=O)C2)cc1 (stereo not drawn) | 23.8% | 1.5 | -0.3% | 4.6 | -0.7 | -27.8%
C/C(CC(=O)N1CCN(C=O)CC1)=N\NC(=O)c1cccc([N+](=O)[O-])c1 | 19.9%[15.4 µM] | 3.1 | / | -14.1 | -0.1 | 2.5%
Cc1c(C)n2c3c(cccc13)CC2 | 5.8%[15.4 µM] | ? | / | 12.4 | 0.8 | /
COc1ccccc1OCCNC(=O)c1ccco1 | -94.8%[inhibitor] | / | -0.8% | -6.6 | -0.3 | 9.0%
O=C(CCS(=O)(=O)c1ccccc1)Nc1nc(-c2ccccn2)cs1 | -2.8% | / | -5.4% | 3.1 | -0.1 | 2.8%
O=C(Nc1cccc(C(=O)OCc2cc(=O)n3c4c(sc3n2)CCCC4)c1)c1cccc(Cl)c1 | / | / | 14.4% | -28.7 | 0.5 | /
CCOc1ccc(N(C)S(=O)(=O)c2cnc[nH]2)cc1 | 12.3% | / | -1.8% | -8.2 | 0.1 | -5.1%
C=C(C)C(=O)N1CC2(CC(c3cccc(NC(=O)/C=C\C=C/C)c3)=NO2)C[C@H]1C(N)=O (stereo partly drawn) | -34.2%[inhibitor] | 9.9 | 1.2% | 3.7 | -0.4 | 6.8%
COc1ccc(C(=O)NCC(=O)OCC(=O)c2ccccc2Br)cc1OC | -5.8% | / | -3.8% | -8.0 | -1.0 | /
CCNc1sc(S(C)(=O)=O)nc1S(=O)(=O)c1ccc(C)cc1 | / | / | -1.9% | -4.8 | 1.4 | /
Cc1nonc1N1CCN(Cc2cn[nH]c2-c2ccc3c(c2)OCO3)CC1 | 6.5% | -3.7 | / | -7.9 | 0.2 | 5.7%
O=C(COC(=O)c1cccc(Cl)c1)NC1CCCCCCC1 | -7.0% | / | -0.2% | -13.5 | -0.3 | 10.3%
COc1cc(/C=C/c2nc(C#N)c(N3CCCCC3)o2)cc(OC)c1OC | / | / | 4.0% | -21.3 | 4.0 | /
COCC(C)N=C1NN=C(c2c[nH]c3ccccc23)CS1 (stereo not drawn) | -4.2% | 2.7 | -0.8% | -5.1 | 0.3 | 3.5%
Cc1cccc(NS(=O)(=O)c2ccc(C)c(C(=O)NCC(c3cccs3)N(C)C)c2)c1 (stereo not drawn) | ? | / | -1.8% | 7.9 | 0.4 | -3.3%
CCOC(=O)c1nc(C)nc(Sc2n[nH]c(-c3cc(C(F)(F)F)cc(C(F)(F)F)c3)n2)c1C | 1.9% | -1.8 | 0.2% | 0.8 | 1.5 | -48.7%
CCOC(=O)CN(C(=O)c1ccccc1[N+](=O)[O-])C(C)(C)C | -1.9%[15.4 µM] | -0.8 | / | 8.7 | 0.1 | 4.5%
CCOc1ccc(-c2nnn(CC(=O)NCc3ccc(F)cc3)n2)cc1OCC | -42.0%[inhibitor] | -0.9 | -3.7% | -12.0 | 1.1 | 6.9%
CC1(C)CC(=O)C2=C(C1)N(c1ccccc1)C(=O)CC2c1ccsc1 (stereo not drawn) | -28.0% | -1.3 | -0.1% | -9.7 | -0.8 | -12.9%
NC(=O)c1ccc(C(F)(F)F)cn1 | ? | 7.5 | / | -21.1 | 0.7 | 18.9%
COc1ccc(C(C#N)=Cc2cccc(OC)c2OC)cc1 | -4.1% | / | -15.5% | 6.0 | 0.9 | /
CCN(CC)CCCn1c(C)cc2c(c1=O)C(c1ccccc1)C(C#N)=C(N)O2 (stereo not drawn) | -15.4% | -0.7 | -0.3% | -5.1 | -0.5 | -3.6%
O=C(c1ccccc1-c1ccccc1)N1CCCC1 | 14.7% | 0.0 | -0.6% | 2.8 | 0.0 | -8.1%
O=C1Nc2ccccc2S/C1=C/Nc1cccc(Cl)c1 | 37.6% | 13.7 | 1.3% | -4.0 | 2.0 | 0.3%
O=C(OCC(=O)N1CCN(c2ccccc2)CC1)c1ccccc1OC(F)F | 13.4% | / | -1.1% | 56.4 | -0.6 | -4.2%
O=C(COC(=O)C1CCCCC1)NCc1ccc(Cl)cc1 | ? | / | / | -9.9 | 1.1 | 6.3%
Cc1cccc(C(=O)Nc2ccccc2SCC(=O)Nc2ccc(C)c(Cl)c2)c1 | -38.7% | 3.4 | -12.8% | 47.4 | -0.5 | 6.1%
O=C(CCCSc1nc2ccccc2[nH]1)N1CCN(c2ccc([N+](=O)[O-])cc2)CC1 | 14.1% | 1.5 | -0.8% | -4.5 | -0.8 | -7.3%
COC(=O)C1C(=O)C=C(Nc2ccc(F)cc2)CC1c1ccc(OC)cc1 (stereo not drawn) | -3.7%[15.4 µM] | 0.0 | 0.6% | -9.2 | -0.5 | 3.7%
C/C(N)=C(/C#N)C(=O)CSc1ccc2c(c1)OCCO2 | -34.9%[inhibitor] | -0.9 | -2.0% | 21.7 | 0.5 | 2.1%
Cc1cc(C(=O)NCc2ccccc2Cl)c2c(C)nn(-c3cccc(F)c3)c2n1 | / | / | -10.9% | 21.1 | 0.3 | /
CC1Nc2ncnc(N3CCOCC3)c2N(Cc2ccc(Cl)cc2)C1=O (stereo not drawn) | 14.6% | / | -4.8% | -13.2 | 0.8 | -8.4%
CCCC1CCC(c2ccc(C(N)=O)cc2)CC1 (stereo not drawn) | -1.0% | 2.5 | 74.2% | -10.0 | 0.3 | -12.4%
CN(C)CCN(Cc1cccs1)c1ccccn1 | / | -2.0 | -0.8% | -6.4 | 1.1 | -7.3%
COC(=O)C1=C(O)/C(=C/c2ccc(OCC(=O)Nc3ccc(OC)cc3)cc2)N=C1C | -63.9%[inhibitor] | / | 7.6% | 44.2 | -0.6 | /
COc1ccccc1CCNC(=O)C(=O)NCC(c1cccs1)S(=O)(=O)c1ccc(F)cc1 (stereo not drawn) | / | / | -1.6% | -11.3 | 0.4 | /

Carrying on.
SMILES | gsp ag | Menin-MLL FL inh | ClpP mod | TRPML1 blocker | TRPML1 ag | gsp antag
Cc1ccc2[nH]c(=O)c(CN(CCCO)C(C)c3nnnn3Cc3ccco3)cc2c1 (stereo not drawn) | -7.5%[15.4 µM] | 2.0 | / | 3.8 | -0.2 | -6.2%
O=C(COC(=O)c1ccccc1[N+](=O)[O-])NCCCc1ccccc1 | 4.6% | 1.9 | -1.1% | 4.3 | 0.9 | 5.5%
CCN(CC)CCOCCOC(=O)C(CC)(CC)c1ccccc1 | 6.3%[15.4 µM] | 3.6 | -7.0% | -9.8 | -0.4 | 15.0%
CCOC(=O)/C=C(\C)Sc1cc(O)c2ccccc2c1O | 1.8% | -7.2 | -1.5% | 53.7 | 0.9 | -21.2%
